Screening results: PubChem, SRMLSC
H5N1 CPE: antiviral screen in MDCK cells, H5N1 avian flu; cytopathic effect, luminescence, 72 h; active compounds read high; no value below 0 was filed and about half of the inactive calls have no number; reference of the scale not given here; hit rate 0.07% among 96,000; inhibition, % at 50 µM; AID 740; in the data active = inhibition above about 25%
* hit, by the source's call; i = inactive. This is a subset (hit frequency here may not be typical).

smiles,H5N1 CPE
O=C(NC(Nc1cc(C(F)(F)F)ccc1Cl)C(=O)c1ccccc1)c1ccccc1 (stereo not drawn),1.3
CCC(=O)NC(Nc1cccc(C)n1)(C(F)(F)F)C(F)(F)F,i
CC(NC(=O)C1CCCCC1)C(=O)NC1=NCCS1 (stereo not drawn),i
N#C/C(=C(/O)COc1cccc2ccccc12)c1nc2ccccc2[nH]1,i
Cc1ccc(CNC(=O)CCc2c(C)nc3ncnn3c2C)cc1,2.2
CCOC(=O)c1cnc(-n2nc(C)cc2C)nc1NC(C)c1ccccc1 (stereo not drawn),i
CCn1c(SCC(=O)NCc2ccc(F)cc2)nc2c(c1=O)SC(C)C2 (stereo not drawn),0.5
Cc1ccc(CCNC(=O)CN(C)S(=O)(=O)c2ccc3c(c2)c(=O)n(C)c(=O)n3C)cc1,0.6
CCN1C(=O)CC(C(=O)O)SC1=Nc1ccc(OC)cc1 (stereo not drawn),i
COCCn1c(=NC(=O)CSCC(=O)NC2CCCCC2)sc2cc(OC)ccc21,i
CNc1ccccc1C(C)(C)c1cc(-c2ccco2)n[nH]1,2.5
O=C(CN1C(=O)CSc2ncccc21)N1CCOCC1,0.4
CCOC(=O)c1c(C)n(C(=O)c2ccco2)c(=O)n1C(=O)c1ccco1,1.6
Cc1cc(C)n(C2=NS(=O)(=O)c3ccccc32)n1,0.1
CC1CCN(C(=O)CN2C(=O)C(=O)c3ccccc32)CC1,i
CC(C)C(c1nnnn1Cc1cccs1)N1CCN(C2CCCC2)CC1 (stereo not drawn),1.2
COc1ccccc1C(=O)N1CCN(c2nc3cc(C)c(C)cc3cc2C#N)CC1,5.7
CNC(C)c1cc(OC)ccc1OC (stereo not drawn),i
O=c1c2ccccc2nc(SCc2ccc([N+](=O)[O-])cc2)n1-c1ccccc1,i
Cc1ccc(=O)n(C(C(=O)NCc2ccco2)C(=O)c2ccc(F)cc2)c1 (stereo not drawn),i
COc1cc2[nH]c(=S)n(CCCN3CCOCC3)c(=O)c2cc1OC,0.9
COc1ccccc1N1CCN(Cc2cccc(OC)c2OC)CC1,i
CC(=O)Nc1ccc(N(C)C)cc1[N+](=O)[O-],i
CN1CCN(Cc2ccc(OCc3ccccc3)cc2)CC1,i
COc1ccc(N2CCN(C(=O)COc3ccc(Cl)cc3Cl)CC2)cc1,0.3
Cc1cccc(CCNS(=O)(=O)c2ccc3c(c2)n(C)c(=O)c(=O)n3C)c1,1.4
O=C(c1cc(-c2ccc(Cl)cc2)n(-c2ccc(Cl)c(Cl)c2)n1)N1CCOCC1,8.8
c1ccc(Cc2nc(-c3ccccn3)no2)cc1,i
COC(=O)CN1C(=O)C(O)(CC(=O)c2ccc(Cl)cc2)c2ccccc21 (stereo not drawn),i
CCC1SC2=NCCN2C1(O)c1ccc(Cl)cc1 (stereo not drawn),i
CCCC(NS(=O)(=O)c1ccc(C)cc1)C(=O)O (stereo not drawn),i
COc1cc(C(=O)N2CCN(C(=O)COc3ccc4ccccc4c3)CC2)cc(OC)c1OC,1.7
COc1cc2c(cc1OC)C1C/C(=N\O)C(CC(C)C)CN1CC2 (stereo not drawn),1.0
O=C(O)c1ccc(NC(=O)C2C3CCC(C3)C2C(=O)O)cc1 (stereo not drawn),1.1
Clc1ccc(Nc2nc(C3CC3)cs2)cc1,i
O=C1OCc2cc(NC(=O)C3CCCO3)ccc21 (stereo not drawn),0.2

Six entries drawn at random from the list so far:
smiles,H5N1 CPE
CC(C)C(c1nnnn1Cc1cccs1)N1CCN(C2CCCC2)CC1 (stereo not drawn),1.2
COc1ccccc1N1CCN(Cc2cccc(OC)c2OC)CC1,i
CC(NC(=O)C1CCCCC1)C(=O)NC1=NCCS1 (stereo not drawn),i
COc1cc2c(cc1OC)C1C/C(=N\O)C(CC(C)C)CN1CC2 (stereo not drawn),1.0
Cc1ccc(CCNC(=O)CN(C)S(=O)(=O)c2ccc3c(c2)c(=O)n(C)c(=O)n3C)cc1,0.6
Clc1ccc(Nc2nc(C3CC3)cs2)cc1,i

(listing goes on)
smiles,H5N1 CPE
CC(C)(C)C1=Nn2c(nnc2-c2n[nH]c3c2CCC3)SC1,13
O=C(Nc1ccccc1)N(O)c1ccc(Cl)cc1,i
O=C(Nc1c(C(=O)N2CCCCC2)cnn1-c1ccccc1)c1ccccc1,0.7
CC1CC(=O)N(CC(=O)Nc2ccc3c(c2)OCO3)c2ccccc2S1 (stereo not drawn),0.8
CC1(C)CC(=O)C(C=NCc2ccccn2)=C(O)C1,2.0
CCOC(=O)c1cccc(NC(=O)CNC(=O)C2CCCCC2)c1,0.8
CC(C)c1ccc(/C=C/C(=O)NC2=NCCS2)cc1,i
Cc1cc([N+](=O)[O-])c2[nH]c(C(=O)N/N=C/c3ccccc3C(=O)O)c(-c3ccccc3)c2c1,2.5
COc1ccc(-n2c(C)cc(C(=O)COC(=O)Cn3cnc4ccccc43)c2C)cc1,0.5
N#Cc1nc(-c2ccccc2)oc1NCc1ccco1,i
CN1CC(c2ccccn2)C2(SC(=S)N(Cc3ccccc3)C2=O)C12C(=O)Nc1ccccc12 (stereo not drawn),0.9
Cc1cc(C)c2cc3c(N)c(C(=O)N4CCc5ccccc5C4)sc3nc2c1,1.5
CCc1nc(SCC(=O)Nc2nc3c(s2)CCCC3)c2ccccc2n1,i
COCc1nnc(NC(=O)c2ccc(S(=O)(=O)N(C)C3CCCCC3)cc2)o1,i
Cc1[nH]nc2c1C(c1ccccc1F)NC2=O (stereo not drawn),1.2
CSc1nncc(-c2ccc(F)cc2)n1,15
CCCCOc1ccc(-c2nnn(C(C)(C)C(=O)OC)n2)cc1,i
C=CCNC(=O)C1CC(=O)N(c2ccc(C)cc2)C1 (stereo not drawn),0.7
CCC/S(CC1CC1(Cl)Cl)=N\S(=O)(=O)c1ccc(C)cc1 (stereo not drawn),i
CCCn1c(-c2cc(OC)c(OC)c(OC)c2)nc2nc3ccccc3nc21,5.4
COc1ccc(OC)c(S(=O)(=O)N2CCC(C(=O)N3CCc4ccccc4C3)CC2)c1,0.7
CCOC(=O)CCc1c(C)c(C#N)c2[nH]c3ccccc3n2c1=O,3.0
CCOc1ccccc1C1N(c2ccc(F)cc2)C(=O)C2CCCN21 (stereo not drawn),i
CC1CN=C(Nc2cccc3ccccc23)S1 (stereo not drawn),i
COc1ccc(CCNc2cc(N3CCN(C(=O)c4ccccc4F)CC3)ccc2[N+](=O)[O-])cc1OC,i
CCOC(=O)c1ccc(S(=O)(=O)Nc2ccccc2-c2nnn(CC)n2)cc1,0.5
CC(=O)Nc1nnc(Cc2ccccc2)s1,i
Cc1nnc(SCCn2c(N3CCN(C)CC3)nc3c2c(=O)n(C)c(=O)n3C)s1,0.8
N=C1C(c2nc3ccccc3s2)=C(O)CN1CCCO,1.4
CC(C)n1nnnc1SCC(=O)N1CCN(C(=O)c2ccco2)CC1,i
CCCS(=O)(=O)N1CCC(C(=O)NCc2ccco2)CC1,i
CCCCCNC(=O)CCn1c(=O)oc2ccccc21,i
CC1CCCCC12NC(=O)N(CC(=O)c1ccc[nH]1)C2=O (stereo not drawn),0.4
Cc1cccc(-c2nnc3n2N=C(c2ccccc2Br)CS3)c1,2.1
CCCC(=O)Nc1nc2ccc(S(=O)(=O)N3CCCCC3)cc2s1,i
O=C(Cn1cnc2c(oc3ccccc32)c1=O)NCc1ccco1,1.4
Cc1cc(OCc2nn[nH]n2)c2c(-c3ccccc3)cc(=O)oc2c1,i
COc1cccc(NC(=O)COC(=O)c2cc(S(=O)(=O)N3CCOCC3)ccc2C)c1,0.1
Cc1nnc(SCC(=O)NCC2CCCCC2)n(N)c1=O,i
O=C(c1cc2c(s1)CCCC2)N1CCN(Cc2ccc3c(c2)OCO3)CC1,i
CCOc1c(Cl)cc(/C=N/O)cc1OC,i
CCOC(=O)/C(C#N)=C/c1cc2ccccc2nc1Cl,1.2
CC(C)(C)Sc1nc(O)cc(=O)[nH]1,i
CC1CCc2c(sc(NC(=O)COC(=O)c3ccccc3NCc3ccco3)c2C#N)C1 (stereo not drawn),i
O=C(CCC1CCCC1)N1CCN(C2CCCC2)CC1,1.0
O=C(COc1ccc(-c2nnc(N3CCCCC3)c3ccccc23)cc1)N1CCCCC1,i
Fc1ccc(CSc2nncn2NC/C=C/c2ccccc2)cc1,i
CCCc1cc(C(F)(F)F)c(C#N)c(=O)[nH]1,i
CCn1c(CCC(=O)Nc2cc(F)ccc2C)nc2cc(S(=O)(=O)N(C)C)ccc21,1.0
CCCc1ccc(S(=O)(=O)NCCc2ccncc2)cc1,2.2
N#Cc1cc(N)ccc1Sc1ccccc1,i
COc1ccc(N2CCN(C(=O)CN(c3cccc(Br)c3)S(C)(=O)=O)CC2)cc1,0.5
COc1ccc(/C=N/n2cnc3c([nH]c4ccc(Br)cc43)c2=O)cc1CN1CCOCC1,i
COc1cccc(-n2c(-c3ccoc3)nc3ccccc3c2=O)c1,0.5
CCOC(=O)N1CCN(CC(O)COc2ccccc2C(C)CC)CC1 (stereo not drawn),i
CC(C)c1ccc2oc(-c3ccc(NC(=O)c4ncn[nH]4)cc3)nc2c1,0.7
COC(=O)c1ccc(CSc2nnc(Nc3ccccc3OC)s2)o1,i
COc1ccc(C(=O)Nc2ncc3c(n2)CC(c2ccco2)CC3=O)cc1 (stereo not drawn),0.8
N#Cc1c2c(c(Nc3ccccc3)n3c1nc1ccccc13)CCC2,0.7
COc1ccc(CSc2nnc(C)n2N)cc1Br,i

(further entries)
smiles,H5N1 CPE
CCn1c(=O)cc(OCC(=O)N2CCN(c3cccc(C(F)(F)F)c3)CC2)c2ccccc21,5.2
O=C(CCCc1nc(-c2ccccc2Cl)no1)NCc1cccnc1,0.9
Brc1cnc(N2CCCCC2)nc1N1CCOCC1,1.9
CC(C)C(C(=O)Nc1nccs1)c1ccccc1 (stereo not drawn),0.3
CCn1c(=N)n(CC(=O)c2cccc(OC)c2)c2ccccc21,i
CCCCc1nnc(NC(=O)C(C)Sc2nc(N)cc(=O)[nH]2)s1 (stereo not drawn),i
COc1ccc(N2CSC3=C(C#N)C(c4cccs4)CC(=O)N3C2)cc1 (stereo not drawn),i
CC(=O)Nc1ccc(OC(=O)N(C)C)cc1,i
CCN(CC)S(=O)(=O)c1ccc(Cl)c(C(=O)NCC2CCCO2)c1 (stereo not drawn),0.6
CCCN(CCO)Cc1ccc2ccccc2c1,0.4
CCCC(=O)C1C(=O)CC(C)(C)C(c2cc(C)no2)C1=O (stereo not drawn),i
CCCCN(CC)Cc1ccc(CNC(=O)Nc2ccc(OC)cc2OC)o1,i
CCCCCOC(=O)c1ccccc1C(=O)O,0.2
O=C(NC1CCCCC1)c1cccs1,1.6
COc1ccc(-c2nc(CNS(=O)(=O)c3ccc(OC)c(OC)c3)cs2)cc1,0.8
COC(=O)c1ccccc1NC(=O)COc1ccccc1,i
COc1ccc(CC(=O)N2CCN(c3ccccn3)CC2)cc1,i
CC(=O)/C=C(\C)NCCNc1c(F)c(F)c(CO)c(F)c1F,i
CCn1c(SCc2nc3ccccc3[nH]2)nnc1-c1ccc(OC)cc1,0.9
COc1ccc(NC(=O)C(=O)N/N=C/c2cccnc2)c(OC)c1,0.8
CSC(=NC1CCCCC1)NS(=O)(=O)c1ccccc1,i
CSc1nc(N)nc(SCC(=O)CC(=O)OC(C)C)c1C#N,i
CC(C)N(C(=O)CN1C(=O)NC2(CCCCCC2)C1=O)C(C)C,i
CCc1cc2c(=O)c(-c3nc4ccccc4n3C)c(C)oc2c(CN2CCN(C)CC2)c1O,i

Brought forward from above: 5 entries, then new ones.
smiles,H5N1 CPE
COc1ccc(NC(=O)C(=O)N/N=C/c2cccnc2)c(OC)c1,0.8
CSC(=NC1CCCCC1)NS(=O)(=O)c1ccccc1,i
CSc1nc(N)nc(SCC(=O)CC(=O)OC(C)C)c1C#N,i
CC(C)N(C(=O)CN1C(=O)NC2(CCCCCC2)C1=O)C(C)C,i
CCc1cc2c(=O)c(-c3nc4ccccc4n3C)c(C)oc2c(CN2CCN(C)CC2)c1O,i
Cc1ccc(S(=O)(=O)N[C@@H](CC(C)C)C(=O)NCc2ccco2)cc1,i
CCn1c(=O)n(CC(=O)N2CC(C)CC(C)C2)c(=O)c2ccccc21 (stereo not drawn),i
COC(=O)Cn1c(=NC(=O)CSC(C)=O)sc2ccccc21,0.8
N#CC1=C2SCC(O)(c3ccccc3)N2C(=O)CC1c1cccs1 (stereo not drawn),i
Cc1cc(C(=O)OCC(=O)N2CCOCC2)c2ccccc2n1,i
Cc1ccc(NC(=O)C2CC(=O)OC23CCOC(C)(C)C3)cc1 (stereo not drawn),i
COC(=O)COC(=O)c1ccc(O)cc1,i
CCCCn1c(NCc2ccccn2)nc2ccccc21,i
O=C(CSc1nnc(CN2CCOCC2)n1-c1ccc(Cl)cc1)Nc1cc(Cl)ccc1O,i
Cc1ccc2oc(C(=O)Nc3nnc(C)s3)c(C)c2c1,i
CCN1C(=O)c2cccc3cccc1c23,0.7
Cc1ccc(/C(O)=C2/C(=O)C(=O)N(CCN3CCOCC3)C2c2cccs2)cc1 (stereo not drawn),0.0
Cc1ccc(C)c(NC(=O)C2CC(Cl)=CCC2C(=O)O)c1 (stereo not drawn),0.8
CCOc1cc(C2CC(=O)NC3=C2C(=O)C(C(=O)OC)C(C)C3)cc(Br)c1O (stereo not drawn),i
COc1cccc(CNC(=O)C2CCCN(c3nn4c(=O)cc(C)nc4s3)C2)c1 (stereo not drawn),2.1
